HCMV UL50-53 inh: cytomegalovirus nuclear egress complex inhibition. inhibition, % (test concentration not listed). HTRF UL50-UL53 interaction, normalized percent inhibition. AID 1918969. 190,000 compounds, 0.15% hits;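 active means both replicates at 50% or more, plus weaker picks with an unusually low signal ratio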;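 further: stock transfer was 100 nL into about 20 µL; 0% = negative control wells and 100% = wells with untagged competitor protein; inactives centre near -12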
GIV-Gai inh: inhibitors of GIV GBA-motif binding to rat Galpha-i3. P08753. Galpha-i3/FITC-GIV peptide fluorescence polarization, 90 min; stronger effect = lower value; scaled: aluminum fluoride 0%, vehicle 100%. percent of control (FP), % (no concentration beside the values). 210,000 compounds, 0.42% hits;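 active means replicate mean at 85% of control or lower, very high polarization wells dropped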;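 further: wells of about 15 µL received 100 nL stock; the first replicate is given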
Target sequence (P08753 whole entry, looked up): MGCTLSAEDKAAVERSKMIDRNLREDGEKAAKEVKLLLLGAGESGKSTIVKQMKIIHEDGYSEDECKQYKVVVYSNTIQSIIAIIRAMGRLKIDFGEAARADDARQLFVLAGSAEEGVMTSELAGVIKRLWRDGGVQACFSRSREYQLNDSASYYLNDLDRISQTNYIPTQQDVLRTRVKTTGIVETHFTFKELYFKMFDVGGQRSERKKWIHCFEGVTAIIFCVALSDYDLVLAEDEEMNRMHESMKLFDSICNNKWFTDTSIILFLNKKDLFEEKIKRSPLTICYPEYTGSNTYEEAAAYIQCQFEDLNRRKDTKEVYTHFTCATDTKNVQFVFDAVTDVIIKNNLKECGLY
Sa growth inh: S. aureus growth inhibition | 170,000 compounds, 0.53% hits | S. aureus RN4220 growth, OD600, 20 h, 42 °C; stronger effect = lower value | relative growth, % (concentration not given with the values) | AID 720641;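 active means growth at 42 °C up to 50% and 20 or more points under that at 30 °C, or under 10% at both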;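 further: 300 nL library stock went into each well; scaled to the means of positive and negative controls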
Sa growth inh second temp: recorded beside Sa growth inh, whose call it bears; relative growth, %; measured here: growth at 30 °C;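 optical density after 20 h as mean of two plates; 100% = untreated growth and lower means inhibition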
An asterisk follows results filed as active; . = no result given; & = joins results of further samples. Outcome played no part in choosing rows; any-hit rate near 0.85%.

SMILES	HCMV UL50-53 inh	GIV-Gai inh	Sa growth inh	Sa growth inh second temp
OCCN(CCO)CC(O)Cn1c2ccccc2c2ccccc21 (stereo not given)	-9	117	.	.
O=C(CSc1nnc(-c2ccncc2)o1)N1CCCc2ccccc21	-18	.	100	79
O=C(CSc1ncc(-c2ccccc2)n1Cc1ccco1)Nc1cccc(I)c1	-15	103	124	80
CCOC(=O)C(C)n1nnc2sc(-c3ccccc3)cc2c1=O (stereo not given)	-26	124	93	80
O=C(Nc1ccccc1)n1ccc(-c2ccc(-n3ccnc3)cc2)n1	0	105	.	.
O=C(CS(=O)(=O)c1ccc(C(F)(F)F)cn1)Nc1ccccc1	-12	97	102	79
Cc1ccc(S(=O)(=O)N2C(=S)SCC2(C)C)cc1	-33	102	132	79
N#CC(C(=O)COc1ccc(Cl)cc1)c1nc2ccccc2[nH]1 (stereo not given)	-4	.	83	89
COc1cc(CNC(=O)Cn2nc(C)c3c(C)n(-c4ccccc4)nc3c2=O)cc(OC)c1OC	-14	117	103	96
O=C(O)CC(NC(=O)Cc1ccc(Cl)cc1)c1ccc(F)cc1 (stereo not given)	.	107	120	83
Cc1ccc(-n2ncc(C(=O)Nc3ccc4c(c3)OCCO4)c2C2CCN(C(=O)OC(C)(C)C)CC2)cc1C	.	103	97	88
COc1cccc(CN2C(=O)c3cc4occc4n3CC2(C)C(=O)NC2CCCCC2)c1 (stereo not given)	-24	102	.	.
CCNS(=O)(=O)c1ccc(NC(=O)C2CC(=O)N(c3ccc(C)cc3)C2)cc1 (stereo not given)	-17	104	99	92
Oc1c(C(c2cccc(Br)c2)N2CCCC2)sc2nc(-c3ccco3)nn12 (stereo not given)	.	98	98	93
O=S1(=O)CC(N2CCOCC2)c2ccccc21 (stereo not given)	-37	98	87	89
O=C(c1cccs1)c1cn(CC(=O)N2CCOCC2)c2ccccc12	-4	104	117	80
Cc1ccc2nc(N3CCCC3)[nH]c2c1	1	105	113	87
COc1ccc(CCNC(=O)c2ccc3c(Cl)c4c(nc3c2)CCCC4)cc1OC	-32	100	109	89
CCOC(=O)c1c(C)[nH]c(C(=O)N2CCCC(C(=O)N3CCN(c4ccccn4)CC3)C2)c1C (stereo not given)	-7	97	.	.
Cc1ccc2c(c1)oc(=O)n2CC(=O)c1ccccc1	-14	98	87	86
COc1cc(C(=O)NCC(c2cccnc2)N2CCN(C)CC2)cc(OC)c1OC (stereo not given)	-18	109	105	88
CCn1c(C(=O)Nc2cc(Cl)ccc2C)cc2sc(Cl)cc21	-19	104	106	90
C=CCn1c(SCC(O)Cn2c3ccccc3c3ccccc32)nnc1-c1ccco1 (stereo not given)	-17	101	112	85
O=C(CC1S/C(=N\N=C2\CSC(=O)N2)N(Cc2ccco2)C1=O)Nc1ccc(Br)cc1 (stereo not given)	4	.	84	97
Cc1cc(N2CCCCC2)n2ncc(-c3ccc(F)cc3)c2n1	-13	101	.	.

Next section (two carried over from the part before).
SMILES	HCMV UL50-53 inh	GIV-Gai inh	Sa growth inh	Sa growth inh second temp
O=C(CC1S/C(=N\N=C2\CSC(=O)N2)N(Cc2ccco2)C1=O)Nc1ccc(Br)cc1 (stereo not given)	4	.	84	97
Cc1cc(N2CCCCC2)n2ncc(-c3ccc(F)cc3)c2n1	-13	101	.	.
O=C(c1ccco1)N1CCN(C(=O)c2ccco2)CC1	8	105	103	106
Cc1ccc(-n2c(Sc3ncccc3C#N)nnc2N2CCOCC2)cc1	6	.	104	103
COc1ccc(-c2cccc(NS(=O)(=O)c3ccc(NC(C)=O)cc3)c2)nn1	.	105	98	87
COc1ccc(OCCCn2c(C)nc3cc(C)c(C)cc32)cc1	-29	101	93	69
CC(Oc1ccccc1)C(=O)NCc1ccccn1 (stereo not given)	-12	106	93	69
CC(=O)NC1C(OC(C)C)OC(CO)C(O)C1O (stereo not given)	-7	.	80	90
COc1ccc(Cl)cc1S(=O)(=O)N1CCN(Cc2cccc(F)c2)CC1	.	101	90	82
O=C(COC(=O)c1sc2ccccc2c1Cl)c1ccccc1F	16	.	100	102
COc1ccc(N2CCN(c3ncnc4sc(C(=O)NCc5ccccn5)c(C)c34)CC2)cc1	-54	106	.	.
COCCn1c(C)cc(O)c(C(c2ccccc2)N2CCCCC2)c1=O (stereo not given)	.	99	105	92
COC(=O)c1ccc(C(=O)OC)cc1	5	.	81	112
O=C(O)c1nsc2ccccc12	.	98	113	85
O=C(NCCCN1CCOCC1)c1cc2ccccc2cc1O	-54	.	81	91
O=C(Nc1ccc2nc(NC(=O)C3CCCCC3)sc2c1)c1cc([N+](=O)[O-])cc([N+](=O)[O-])c1	-23	103	.	.
CC(=O)Nc1ccc(S(=O)(=O)N(C#N)c2nc(C)cc(C)n2)cc1	-19	101	.	.
COc1cccc(CNC(=O)c2nn(C)c3c2CS(=O)(=O)c2ccccc2-3)c1	-15	98	110	82
Cc1cc(O)c(C(C)C)cc1CNC(=O)c1ccccc1O	-20	97	105	95
O=c1ccnc(SCc2cccc(Cl)c2)[nH]1	-8	102	90	83
CNC(=S)N1CCc2sccc2C1C (stereo not given)	-16	102	104	96
COc1cc2c(=O)n(Cc3ccccc3Cl)c(=O)n(CC(=O)Nc3ccccc3)c2cc1OC	-19	99	108	90
C=CCN(Cc1nc(-c2ccccc2)no1)S(=O)(=O)c1ccccc1	-18	113	104	100
Cc1ccn2c(Nc3ccc4c(c3)OCO4)c(-c3ccc(Cl)cc3)nc2c1	-28	104	102	92
O=c1[nH]c(SCc2ccc(F)cc2)nc2nc[nH]c12	-28	101	.	.
Cc1cn2c(=O)cc(COC(=O)c3ccc(NC(=O)C(C)Oc4ccccc4)cc3)nc2s1 (stereo not given)	.	104	103	93
O=C(/C=C/c1cccc2ccccc12)NC1CCCCC1	6	.	88	97

Compound profiles (already shown):
Entry for `CC(=O)Nc1ccc(S(=O)(=O)N(C#N)c2nc(C)cc(C)n2)cc1` = HCMV UL50-53 inh: -19; GIV-Gai inh: 101; Sa growth inh: .; Sa growth inh second temp: .
Entry for `O=C(O)c1nsc2ccccc12` = HCMV UL50-53 inh: .; GIV-Gai inh: 98; Sa growth inh: 113; Sa growth inh second temp: 85

(continued)
SMILES	HCMV UL50-53 inh	GIV-Gai inh	Sa growth inh	Sa growth inh second temp
CCOc1ccc(S(=O)(=O)NC)cc1-c1nc(C)no1	-10	105	.	.
Cc1nnc(NC(=O)CSc2nccn2Cc2ccc(Cl)cc2)s1	.	106	112	106
N#CSCC(=O)n1c2ccccc2c2ccccc21	.	106	82	104
CCCCn1c(SCC(=O)Nc2cc(C)on2)nc2ccsc2c1=O	3	92	84	82
COCCCNC(=O)c1cc2c(=O)oc3ccc(C)cc3c2s1	-65	107	101	85
CC(=O)Nc1ccc(NC(=O)C2CCCN(c3nc4ccccc4nc3C(F)(F)F)C2)cc1 (stereo not given)	5	103	.	.
CCc1ccccc1N(C)C(=O)c1cc2c(s1)-c1c(C)cccc1OC2	-38	102	109	86
Cc1nnc2sc(SCc3ccccc3Br)nn2c1=O	-25	100	.	.
CC1CCCCN1C(=O)Cn1c(=O)n(-c2ccc(Cl)cc2)c(=O)c2c3c(sc21)CCC3 (stereo not given)	14	100	91	109
O=C(C[n+]1ccccc1)c1cc2ccccc2oc1=O	.	97	105	93
N#Cc1c(OCC(F)(F)F)ccc(Br)c1OCC(F)(F)F	-39	101	93	89
CCCn1nnc2cc(S(=O)(=O)N3CCCCC3C(=O)NCCC3=CCCCC3)ccc21 (stereo not given)	-12	105	.	.
O=C1CCS(=O)(=O)c2ccccc21	-6	99	106	74
O=C(Cc1nc2ccccc2[nH]1)N1CCCC1	-10	100	115	98
Cc1ccc(C)c(N/C=C(\C#N)c2nc3ccccc3o2)c1	10	108	103	111
CN(C(=O)NCc1noc2ccccc12)c1ccccc1Cl	-4	103	91	93
CCc1nn2c(=O)cc(COC(=O)c3cccc(NC(=O)c4cccs4)c3)nc2s1	.	103	86	91
CCc1nn(CC(=O)Nc2ccc(C)cc2C)c(=O)c2cc3sccc3n12	-6	107	109	91
COc1ccc2c(c1)c1c3n2CCN=C3N(C)CC1	-51	105&110	83	80
O=C(O)c1cc(-c2ccc(Cl)cc2)n(-c2ccc(Cl)cc2)n1	-8	102	.	.
Cc1ccccc1S(=O)Cc1ccc(C(=O)N2CC(C)CC(C)C2)o1 (stereo not given)	-7	106	94	91
Cn1ccnc1SCC(=O)Nc1ccc2c(c1)OCO2	0	107	122	90
Nn1cnnc1SCC(=O)N(C1CCCCC1)C1CCCCC1	-38	101	95	85
COc1cc(C2C3=C(CC(C)(C)CC3=O)OC3=C2C(=O)CC(C)(C)C3)ccc1OCc1ccc(C)cc1	-19	96	.	.
O=C(Nc1nccs1)Oc1ccccc1	3	104	110	100

Carrying on.
SMILES	HCMV UL50-53 inh	GIV-Gai inh	Sa growth inh	Sa growth inh second temp
O=C(c1nc(Nc2ccc(F)cc2)c2ccccc2n1)N1CCOCC1	-3	106	.	.
CC(C)Sc1nnc(NC(=O)CCc2ccccc2)s1	-8	102	111	106
Cc1ccc(NC2OC(=O)c3ccccc32)cc1 (stereo not given)	-1	100	105	67
CC(C)c1nc2ccccc2n1C(=O)/C=C/C(=O)O	18	99	99	98
CCn1c(=O)n(CC)c2cc(NC3=C(C(N)=O)S(=O)(=O)c4ccccc43)ccc21	-43	101	.	.
COc1ccc(NC(=O)CS(=O)CC(=O)NC2CCCc3ccccc32)cc1 (stereo not given)	-14	97	98	99
CC1CCC(C(C)C)C(OC(=O)CSc2nnc(-c3ccco3)n2Cc2ccccc2)C1 (stereo not given)	-14	.	102	107
CC(C)(CC(=O)O)CC(=O)N1CCN(C2c3ccccc3-c3ccccc32)CC1	-18	96	96	84
Cc1ccc(S(=O)(=O)N2CCc3cc(C(=O)NCCc4ccccc4)ccc32)cc1	0	111	91	97
Oc1cccc(/C=N/n2cnnc2SCc2ccc(Cl)cc2)c1O	-39	.	83	68
COC1OC(CO)C(O)CC1O (stereo not given)	-6	103	106	104
CCC1CCCCN1C(=O)Cc1cn(Cc2cccc(Cl)c2)c2ccccc12 (stereo not given)	.	102	82	56
N#C/C(=C1/CCCN1)c1nc(-c2ccccc2)cs1	-30	.	86	96
CCCc1nc2ccccc2n1CC(=O)N1N=C(c2ccc(Cl)cc2)CC1c1ccco1 (stereo not given)	-19	.	70	36
Cc1cc(C)c(NC(=O)C2CCN(S(=O)(=O)c3c(C)noc3/C=C/c3ccccc3F)CC2)c(C)c1	.	97	84	92
CCN(CC)c1ccc(NC(=O)c2cc(C)nc3c2c(C)nn3-c2ccc(C)cc2)c(C)c1	.	100	80	84
Cc1ccc(-c2c(C(F)(F)F)nn3c(N4CCCC4)cc(C)nc23)cc1	15	99	.	.
COc1ccc(NC(=O)C2CCCN(S(=O)(=O)c3ccc4c(c3)CCCC(=O)N4)C2)cc1 (stereo not given)	-5	106	.	.
COc1cc(Cl)ccc1N=NN1CCOCC1	-2	97	99	84
COCCn1cnnc1SCC(=O)c1ccc2ccccc2c1	-100	.	74	80
O=C(NC1CC1)c1ccc2c(=O)nc3c(-c4ccc(F)cc4)n[nH]n3c2c1	-21	106	.	.
O=C1CSCN1c1ccc(C(F)(F)F)cc1	-2	107	.	.
CCOC(=O)Cn1c(O)c(N=NC(=O)c2ccc(/C=N/O)nc2)c2ccccc21	-43	107	101	78
CCc1cc(=O)oc2cc(OCC(=O)OC)c(Cl)cc12	-3	113	74	85
O=C(NC1CCCCC1)SCc1ccccc1	41	98	91	90

An excerpt from above in order of the Sa growth inh second temp value, descending.
smiles | Sa growth inh second temp
CC(C)Sc1nnc(NC(=O)CCc2ccccc2)s1 | 106
COC1OC(CO)C(O)CC1O (stereo not given) | 104
CC(C)c1nc2ccccc2n1C(=O)/C=C/C(=O)O | 98

New compounds follow.
SMILES	HCMV UL50-53 inh	GIV-Gai inh	Sa growth inh	Sa growth inh second temp
N#Cc1cc2nc3c(nc2cc1C#N)-c1cccc2cccc-3c12	-13	101	110	78
CC(C)OCCCNC(=O)CN1C(=O)c2ccccc2Sc2ncccc21	.	103	109	103
COc1cccc(NC(=O)CSC2=Nc3ccccc3C3=NC(CC(=O)NCc4ccccc4OC)C(=O)N23)c1 (stereo not given)	.	109	89	100
CC(C)(C)C(=O)C(Cc1nnc(-c2ccc(Cl)cc2)o1)C(=O)C(C)(C)C	-11	.	67	88
CCSc1nnc(C2CCCN(CC(=O)Nc3ccc(C)cc3Br)C2)n1C(C)C (stereo not given)	-8	98	69	65
COCCNC(=S)N1CCC(Cc2ccccc2)CC1	8	104	83	103
O=C(NCc1cn2ccsc2n1)c1cccs1	.	103	102	86
Cc1nn(-c2ccccc2)c2c1N(CC(=O)N1CCN(c3ccc(Cl)cc3)CC1)C(=O)CS2	.	101	88	90
COC(=O)c1cc(-c2ccc(S(=O)(=O)NCc3ccccn3)cc2)c(C(F)(F)F)s1	-19	96	118	70
Cc1[nH]c(C)c(S(=O)(=O)N2CCC(C(=O)N3CCc4ccccc4C3)CC2)c1C(=O)N1CCCCC1	-30	108	.	.
O=C1CCC(=O)N1c1ccccc1	-16	93	89	95

Results in Sa growth inh, HCMV UL50-53 inh and GIV-Gai inh, for some of the entries so far:
| smiles | Sa growth inh | HCMV UL50-53 inh | GIV-Gai inh |
| --- | --- | --- | --- |
| Cc1ccc2nc(N3CCCC3)[nH]c2c1 | 113 | 1 | 105 |
| COCCn1c(C)cc(O)c(C(c2ccccc2)N2CCCCC2)c1=O (stereo not given) | 105 | . | 99 |
| O=C(c1ccco1)N1CCN(C(=O)c2ccco2)CC1 | 103 | 8 | 105 |
